Vaccinia inh = Vaccinia orthopox stage-specific inhibition; Vaccinia-infected cells, mCherry/Venus stage reporter fluorescence; hits give low values; some inactives read as strong as hits; activity change (mCherry), % (concentration not given with the values); 89,000 tested, 0.01% active; AID 1053133;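 active = mCherry past -33% and 40 or more points under the early reporter, replicates agreeing; inconclusive = past -33% without that gap or agreement; tested in A549 cells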;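 also: scaled between vehicle wells and reference inhibitor wells; 23 nL library stock went into each well; one replicate is shown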
Vaccinia inh Venus = recorded beside Vaccinia inh, whose call it bears; activity change (Venus), %; measured here: Venus reporter, other viral stage;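 negative = less Venus signal; first of two replicates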
* marks the source's active call; other numbers are inactive results; ? = inconclusive; . = no result given; & = joins results of further samples.

Each structure is followed by: Vaccinia inh, Vaccinia inh Venus
- Cc1ccc(S(=O)(=O)Nc2ccc3c(c2)C(=O)N([C@H](C)CO)C[C@@H](C)[C@@H](CN(C)C(=O)Nc2cccc4ccccc24)OCCCC[C@@H](C)O3)cc1
 : 12, 18
- C[C@H](CO)N1C[C@H](C)[C@H](CN(C)CC2CC2)Oc2ccc(NC(=O)CCC(F)(F)F)cc2C1=O
 : 2, -8
- C=CC1C2C(C)=CC(C3C(=O)N(C)C(=O)C32)N1Cc1ccc(OC)cc1 (centres undefined)
 : 11, 3
- C[C@H]1CN([C@@H](C)CO)C(=O)c2cc(-c3ccc(F)cc3)cnc2O[C@@H]1CN(C)Cc1ccc(C(=O)O)cc1
 : 21, 9
- O=C(CN1CCOCC1)NCC[C@H]1CC[C@@H](NC(=O)Cc2ccccn2)[C@@H](CO)O1
 : 0, 2
- O=C(Nc1ccccc1)N[C@@H]1CC[C@H](CCNS(=O)(=O)c2cccc(F)c2)O[C@H]1CO
 : 10, 14
- C[C@H]1CCCCO[C@H](CN(C)Cc2ccncc2)[C@@H](C)CN([C@@H](C)CO)C(=O)c2cc(NC(=O)NC3CCCCC3)ccc2O1
 : ?, .
- COCC#Cc1ccc([C@@H]2[C@@H](CO)N3CCCCN(Cc4cccnc4)C[C@@H]23)cc1
 : 26, 8
- C[C@H](CO)N1C[C@H](C)[C@@H](CN(C)C(=O)NC2CCCCC2)Oc2c(NC(=O)C3CC3)cccc2C1=O
 : 13, 11
- O=C(c1cnccn1)N1CC(=O)N2[C@H](C1)[C@H](c1ccc(/C=C/c3ccccc3)cc1)[C@@H]2CO
 : ?, .
- CNC(=O)C[C@@H]1CC[C@@H]2[C@H](COC[C@@H](O)CN2C(=O)Nc2ccc(Cl)c(Cl)c2)O1
 : ?, .
- O=C(C[C@@H]1C=C[C@@H](NS(=O)(=O)c2cccc(F)c2)[C@H](CO)O1)NCc1ccc2c(c1)OCO2
 : 12, 7
- CNC[C@H]1Oc2ccc(NS(=O)(=O)c3ccc(Cl)cc3)cc2C(=O)N([C@H](C)CO)C[C@@H]1C
 : 1, -2
- CO[C@@H]1CN(C)C(=O)c2ccc(NS(=O)(=O)c3cn(C)cn3)cc2OC[C@@H](C)N(C)C[C@@H]1C
 : 23, 14
- COCCOC(=O)N1C(=O)[C@@]2(c3cc(C#CC4(O)CCCCCC4)ccc31)[C@H](c1ccc(OCCO)cc1)N1[C@H](c3ccccc3)[C@H](c3ccccc3)OC(=O)[C@H]1[C@@H]2C(=O)N1CCN(c2ncccn2)CC1
 : -31, -23

Later entries:
Each structure is followed by: Vaccinia inh, Vaccinia inh Venus
- N#Cc1cccc(-c2ccc(C3[C@H]4CNC[C@@H]3N4C(=O)Nc3ccc(F)cc3)cc2)c1 (some centres undefined)
 : -7&-2, 2&-6
- COc1ccc(NC(=O)N[C@@H]2C=C[C@H](CC(=O)NC3CCCCC3)O[C@@H]2CO)cc1
 : 5, 7
- CC(=O)N(C)C[C@H]1Oc2cc(Br)ccc2S(=O)(=O)N([C@H](C)CO)C[C@H]1C
 : 14, 8
- C[C@@H]1CN([C@@H](C)CO)C(=O)c2cc(NC(=O)NC3CCCCC3)ccc2O[C@@H](C)CCCCO[C@H]1CN(C)Cc1ccc(Cl)c(Cl)c1
 : -11, -7
- CCC(=O)N1[C@@H](CO)[C@@H](c2ccccc2)[C@@H]1CN(CC)C(=O)NC1CCCC1
 : 4, 19
- C[C@H](CO)N1C[C@H](C)[C@@H](CN(C)C(=O)Cc2ccccn2)Oc2ncc(C#C[C@@H](C)O)cc2C1=O
 : 5, 3
- C[C@@H]1CN([C@@H](C)CO)C(=O)c2cc(NC(=O)Nc3ccc(C(F)(F)F)cc3)ccc2O[C@@H]1CN(C)Cc1ccc(Oc2ccccc2)cc1
 : ?, .
- COc1ccc(CN(C)C[C@@H]2Oc3ccc(NC(=O)Nc4ccc(C(F)(F)F)cc4)cc3CC(=O)N([C@@H](C)CO)C[C@@H]2C)cc1
 : ?, .
- O=C(C[C@H]1C=C[C@H](NC(=O)c2ccc(F)cc2)[C@H](CO)O1)NCc1ccncn1
 : -13, -3
- CO[C@@H]1CC[C@@H]2CCN(C)C(=O)[C@@H](C)[C@H](OC)CN(C)C(=O)c3cc(C#N)ccc3OC[C@@H]1O2
 : 11, 7
- CN(C)CC(=O)Nc1ccc2c(c1)[C@H]1C[C@@H](CC(=O)N(C)C)O[C@H](CO)[C@H]1O2
 : 0, -5
- COCC(=O)Nc1ccc2c(c1)OC[C@@H](C)N(C(=O)c1ccncc1)C[C@H](C)[C@H](OC)CN(C)C2=O
 : 2, 0
- CCCNC(=O)C[C@@H]1CC[C@@H]2[C@H](COC[C@@H](O)CN2C(=O)c2ccccn2)O1
 : 37, 19
- CCS(=O)(=O)Nc1ccc2c(c1)C(=O)N(C)[C@@H]1CC[C@H](CC(=O)NC3CCCCC3)O[C@@H]1CO2
 : 10, 14
- COc1ccc(S(=O)(=O)Nc2ccc3c(c2)C(=O)N([C@@H](C)CO)C[C@@H](C)[C@H](CN(C)S(=O)(=O)c2ccc(C)cc2)O3)cc1
 : -11, -8

In a second layout: results already given.
SMILES	Vaccinia inh	Vaccinia inh Venus
COc1ccc(NC(=O)N[C@@H]2C=C[C@H](CC(=O)NC3CCCCC3)O[C@@H]2CO)cc1	5	7
CC(=O)N(C)C[C@H]1Oc2cc(Br)ccc2S(=O)(=O)N([C@H](C)CO)C[C@H]1C	14	8
C[C@@H]1CN([C@@H](C)CO)C(=O)c2cc(NC(=O)NC3CCCCC3)ccc2O[C@@H](C)CCCCO[C@H]1CN(C)Cc1ccc(Cl)c(Cl)c1	-11	-7
CCC(=O)N1[C@@H](CO)[C@@H](c2ccccc2)[C@@H]1CN(CC)C(=O)NC1CCCC1	4	19
C[C@H](CO)N1C[C@H](C)[C@@H](CN(C)C(=O)Cc2ccccn2)Oc2ncc(C#C[C@@H](C)O)cc2C1=O	5	3
C[C@@H]1CN([C@@H](C)CO)C(=O)c2cc(NC(=O)Nc3ccc(C(F)(F)F)cc3)ccc2O[C@@H]1CN(C)Cc1ccc(Oc2ccccc2)cc1	?	.
COc1ccc(CN(C)C[C@@H]2Oc3ccc(NC(=O)Nc4ccc(C(F)(F)F)cc4)cc3CC(=O)N([C@@H](C)CO)C[C@@H]2C)cc1	?	.

Following part.
Each structure is followed by: Vaccinia inh, Vaccinia inh Venus
- CO[C@@H]1CN(C)C(=O)c2cc(NC(=O)Cc3ccccc3)ccc2OC[C@@H](C)N(CC2CC2)C[C@@H]1C
 : -16, -15
- Cc1ccc(S(=O)(=O)Nc2ccc3c(c2)CC(=O)N([C@@H](C)CO)C[C@H](C)[C@H](CN(C)C(=O)Nc2ccc(C(F)(F)F)cc2)O3)cc1
 : -5, -6
- C[C@H]1CN([C@@H](C)CO)C(=O)c2cc(-c3ccccc3F)cnc2O[C@H]1CN(C)Cc1cccc(C(=O)O)c1
 : 10, 1
- CC(C)NC(=O)N(C)C[C@H]1Oc2ccc(NC(=O)c3ccncc3)cc2C(=O)N([C@@H](C)CO)C[C@@H]1C
 : 17, 16
- C[C@H]1CN([C@@H](C)CO)C(=O)c2cccc(NS(C)(=O)=O)c2O[C@H]1CN(C)CC1CC1
 : -1, 4
- O=C(C[C@H]1CC[C@H](NC(=O)Nc2ccccc2)[C@H](CO)O1)NCc1cccc(F)c1
 : -3, -2
- Cc1ccc(S(=O)(=O)Nc2ccc3c(c2)C(=O)N([C@H](C)CO)C[C@H](C)[C@H](CN(C)C(=O)Nc2cccc4ccccc24)O3)cc1
 : 26, 23
- CCCNC(=O)C[C@@H]1CC[C@H]2[C@@H](COC[C@H](O)CN2C(=O)Nc2cccc(Cl)c2)O1
 : 3, 7
- O=C(C[C@H]1CC[C@H]2[C@@H](COC[C@H](O)CN2Cc2ccc(Cl)cc2)O1)Nc1nccs1
 : ?, .
- C[C@@H]1CCCCO[C@H](CN(C)S(=O)(=O)c2ccccc2)[C@@H](C)CN([C@@H](C)CO)C(=O)c2cc(NC(=O)c3ccncc3)ccc2O1
 : -7, -10
- COc1ccccc1-c1ccccc1[C@@H]1[C@@H](C#N)N(C(=O)C2CCC2)[C@@H]1CO
 : -1, -3
- CCNC(=O)C[C@H]1CC[C@H](NS(=O)(=O)c2ccc(C)cc2)[C@H](CO)O1
 : 2, 13
- CO[C@@H]1CN(C)C(=O)c2cc(NC(C)=O)ccc2OC[C@H](C)N(Cc2nccs2)C[C@H]1C
 : 2, 6
- O=C(Nc1ccccc1F)N[C@@H]1CC[C@@H](CCNC(=O)C2CCCCC2)O[C@@H]1CO
 : 0, 2
- COC(=O)C[C@H]1C[C@H]2c3cc(NC(=O)c4ccc5c(c4)OCO5)ccc3O[C@H]2[C@H](CO)O1
 : -8, -1

(list continues)
Each structure is followed by: Vaccinia inh, Vaccinia inh Venus
- CCC(=O)NC[C@H]1[C@H](c2ccc(C3=CCCC3)cc2)[C@H](CO)N1C(C)=O
 : 5, 8
- O=C(NC1CCCCC1)[C@H]1[C@H](CO)[C@H]2Cn3c(cccc3=O)[C@H]2N1CCc1ccccc1
 : 21, 17
- C[C@H](CO)N1C[C@H](C)[C@@H](CN(C)C(=O)c2ccncc2)Oc2ncc(C3=CCCCC3)cc2C1=O
 : 3, -4
- C[C@H](CO)N1C[C@H](C)[C@@H](CN(C)C(=O)NC2CCCCC2)OCCCC[C@H](C)Oc2ccc(NC(=O)C3CCCCC3)cc2C1=O
 : ?, .
- C/C=C/c1ccc(C2[C@@H]3CN(Cc4nccs4)C[C@H]2N3)cc1 (some centres undefined)
 : 10&0, 6&-5
- C[C@@H]1CN([C@@H](C)CO)C(=O)c2c(c3ccccc3n2C)-c2ccccc2CO[C@H]1CN(C)C(=O)c1ccc(F)cc1
 : -14, -11
- O=C(N[C@@H]1C=C[C@H](CC(=O)N2CCOCC2)O[C@H]1CO)c1ccc2c(c1)OCO2
 : 4, 5
- C[C@@H]1CN([C@H](C)CO)S(=O)(=O)c2ccc(C#CC3CC3)cc2O[C@H]1CN(C)C(=O)c1cccc(F)c1
 : ?, .
- CC(C)NC(=O)N(C)C[C@H]1OCCCC[C@@H](C)Oc2ccc(NS(=O)(=O)c3ccc(Cl)cc3)cc2C(=O)N([C@@H](C)CO)C[C@H]1C
 : -2, -1
- CN1C(=O)c2cc(NC(=O)c3cnccn3)ccc2OC[C@@H]2O[C@H](CC(=O)O)CC[C@H]21
 : -2, 1
- C[C@@H]1CN([C@H](C)CO)C(=O)CCCn2cc(nn2)CO[C@H]1CN(C)C(=O)c1ccc2ccn(C)c2c1
 : 18, 12
- CO[C@@H]1CN(C)C(=O)c2ccc(NC(=O)C3CCCC3)cc2OC[C@@H](C)N(C)C[C@@H]1C
 : -1, 0
- C[C@@H]1CN([C@H](C)CO)C(=O)c2cc(NC(=O)CCCCCC(=O)Nc3ccccc3N)ccc2O[C@@H](C)CCCCO[C@@H]1CN(C)C(=O)C1CCCCC1
 : 19, 20
- CN1CCN(C(=O)C[C@@H]2CC[C@@H]3[C@H](COc4ccc(NC(=O)c5cscn5)cc4C(=O)N3C)O2)CC1
 : 9, 10
- COc1cccc(NC(=O)Nc2ccc3c(c2)C(=O)N(C)C[C@@H](OC)[C@H](C)CN(CC2CC2)[C@H](C)CO3)c1
 : ?, .

Continuation:
Each structure is followed by: Vaccinia inh, Vaccinia inh Venus
- CCC(=O)N1[C@@H]2CN(C(=O)NC(C)C)c3ccccc3[C@@H]2[C@@H]1CO
 : 8, 11
- C[C@@H]1CN([C@H](C)CO)C(=O)c2cccc(NC(=O)c3ccncc3)c2O[C@@H]1CN(C)C(=O)Nc1ccc(F)cc1
 : 2, 0
- CN(C[C@@H]1[C@H](c2ccccc2)[C@H](CO)N1C(=O)c1ccccc1)C(=O)C1CC1
 : 18, 12
- CC(C)NC(=O)Nc1cccc2c1O[C@@H](CN(C)S(=O)(=O)c1cccs1)[C@@H](C)CN([C@@H](C)CO)C2=O
 : 5, 11
- C[C@@H]1CN([C@@H](C)CO)C(=O)c2cc(NC(=O)Nc3ccc4c(c3)OCO4)ccc2O[C@@H](C)CCCCO[C@@H]1CN(C)Cc1ccc2c(c1)OCO2
 : -30, -24
- Cc1noc(C)c1S(=O)(=O)Nc1ccc2c(c1)CC(=O)N([C@H](C)CO)C[C@@H](C)[C@@H](CN(C)C(=O)Nc1ccc(C(F)(F)F)cc1)O2
 : 11, 8
- C[C@@H]1CN([C@H](C)CO)S(=O)(=O)c2ccc(-c3cncnc3)cc2O[C@H]1CN(C)C(=O)NC1CCCC1
 : 8, 27
- C[C@H]1CCCCO[C@H](CN(C)C(=O)Nc2ccc(C(F)(F)F)cc2)[C@@H](C)CN([C@@H](C)CO)C(=O)c2cc(NC(=O)c3ccncc3)ccc2O1
 : ?, .
- COCC#Cc1ccc([C@@H]2[C@H]3CN(C(=O)CN(C)C)CCCCN3[C@H]2CO)cc1
 : 23, 10
- CC(=O)N(C)C[C@H]1Oc2cc(C3=CCCC3)ccc2S(=O)(=O)N([C@H](C)CO)C[C@H]1C
 : -6, -15
- C[C@@H]1CN([C@@H](C)CO)S(=O)(=O)c2ccc(C#CC3CC3)cc2O[C@H]1CN(C)CC1CCCC1
 : -5, -16
- C[C@H]1CN([C@@H](C)CO)C(=O)c2cc(-c3ccc(F)cc3)cnc2O[C@@H]1CN(C)C(=O)C1CCC1
 : -9, -6
- COCCNC(=O)[C@H]1[C@H](CO)[C@H]2Cn3c(ccc(-c4ccccc4F)c3=O)[C@H]2N1C(=O)C1CCCC1
 : 4, 16
- C[C@@H]1CN([C@H](C)CO)C(=O)c2cc(-c3cccnc3)cnc2O[C@@H]1CN(C)C(=O)c1ccccc1F
 : 23, 17
- C[C@H](CO)N1C[C@H](C)[C@@H](CN(C)Cc2ccc(Oc3ccccc3)cc2)Oc2ccc(NC(=O)Nc3ccc(F)cc3)cc2C1=O
 : -16, -14
- C[C@@H]1CN([C@@H](C)CO)C(=O)c2cc(Br)cnc2O[C@@H]1CN(C)Cc1cncnc1
 : 21, 14

Not all compounds are listed; rates above refer to the full screens.
